From PubChem BioAssay
Yeast UUG start: alters start codon recognition fidelity in yeast; activity score, % at 18.7 µM; 350,000 tested, 0.13% active; AID 602363; S. cerevisiae UUG-firefly luciferase reporter, luminescence/redox ratio;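 active means replicate mean at a twofold rise or more, about +100% in these data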;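 further: firefly luciferase made from a UUG start codon reports start codon fidelity; reporter light over untreated wells divided by growth signal over untreated wells; some hits fall short of that in this replicate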
MT1-MMP act inh: MT1-MMP (human) activation inhibition. 360,000 tested, 0.061% active. HT1080 RFP-PRO-GFP cells, GFP/RFP ratio fluorescence, overnight; percent of plate control window, DMSO zero. AID 651647. P50281. GFP/RFP ratio change, % at 20 µM;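 active means GFP/RFP ratio change of at least 30% with cell ATP level not reduced by more than half and red fluorescence within 50% of control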; further: strong numbers were not always called active
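system = RFP-PRO-GFP reporter HT1080 cells | dosing = 20 µM single dose, 1% DMSO | timing = overnight cell settling, then overnight compound exposure, 37 °C, 5% CO2 | read-out basis = GFP/RFP fluorescence ratio | controls = DMSO and RFP-L50D-GFP cell wells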
MT1-MMP act inh RFP: further read-out of MT1-MMP act inh, marked with its call; RFP signal change, %; measured here: RFP expression control read;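 0 = vehicle wells; hits needed this value within 50% of zero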
Numbers without * were called inactive. Some of the compounds tested; count on the stated rates, not on these rows.

entry	SMILES	Yeast UUG start	MT1-MMP act inh	MT1-MMP act inh RFP
1	Cc1ccc(C(=O)CN2C(=O)NC3(CCOc4ccccc43)C2=O)s1 (configuration not stated)	-5	-8	-2
2	Cc1cc(C(=O)Nc2ccc(Br)cn2)sc1C	-28	3	-1
3	COc1ccccc1N1CC(C(=O)NCCC2=CCCCC2)CC1=O (configuration not stated)	-16	5	2
4	CC(C)CCNC(=O)c1[nH]c(C(F)(F)F)nc1-c1ccccc1	0	-2	-3
5	CCc1nc2c(OCc3c(C)noc3C)cccn2c1N(C)C(=O)c1ccccc1F	-20	1	2
6	CCN(c1ccccc1)S(=O)(=O)c1cccc(C(=O)NCC(c2ccco2)N2CCCCC2)c1 (configuration not stated)	-2	3	-3
7	COc1cccc(CNC(=O)c2ccc(NC(=O)CC3SC(N4CCCC4)=NC3=O)cc2)c1 (configuration not stated)	-7	1	1
8	CC(C)NC(=O)c1ccc(NC(=O)CC2SC(N3CCCCC3)=NC2=O)cc1 (configuration not stated)	-6	2	1
9	CCNc1ncnc2c1cnn2C1CCCCO1 (configuration not stated)	-6	3	4
10	Cc1cn([C@H]2C[C@H](O)[C@@H](CCC(=O)NCCCc3ccccc3)O2)c(=O)[nH]c1=O	-12	2	5
11	CC(OC(=O)C1CCN(S(=O)(=O)c2ccc3c(c2)OCCO3)CC1)C(=O)NC1(C#N)CCCCC1 (configuration not stated)	-10	2	-1
12	CC(C)(C)Cc1c(C2CCCCC2)nc2ccc(Br)cn12	-4	-6	-6
13	COc1ccc(-c2c(C#N)c(SCC(=O)Nc3ccccc3)nc3c2CCCC3)cc1	0	1	-12
14	COc1ccc(C(=O)/C=C/c2ccc(O)cc2)c2c1CC(O)C(C)(C)O2 (configuration not stated)	-21	-5	-11
15	CC(=O)OCCC(C)C	-13	1	1
16	O=C(COC(=O)c1ccc(S(=O)(=O)NCc2ccco2)cc1)NCc1ccc(F)cc1	-14	-3	-1
17	COc1ccc(C)cc1NC(=O)COC(=O)CCC(=O)c1cccs1	-4	0	2
18	Cc1ccc(S(=O)(=O)NCCCNC(=O)OCc2ccccc2)cc1	-9	-3	-7
19	Cc1ccc(C)c(Sc2ccc(NC(=O)CCN3C(=O)NC4(CCCC4)C3=O)cc2)c1	-10	3	-11
20	Cc1ccc(Cl)cc1NCN1C(=O)c2ccccc2C1=O	7	2	3
21	CCN(CC)S(=O)(=O)c1ccc2[nH]c(=O)cc(C(=O)N(C)C3CCS(=O)(=O)C3)c2c1 (configuration not stated)	-10	-1	3
22	CC(C)Oc1ccc(S(=O)(=O)N2CCOCC2)cc1NC(=O)C1CCCCC1	-7	-1	-5
23	CC1CCCN(C(=O)c2ccc3c(c2)OCCO3)C1 (configuration not stated)	-4	-1	5
24	O=S1(=O)C[C@@H](N2CCC(Cc3ccccc3)CC2)[C@H](COCc2ccccc2)N1	7	5	-6
25	Cc1ccc(C(=O)NCC(=O)OCc2nnc(-c3ccc([N+](=O)[O-])cc3)o2)s1	-4	2	-1
26	CC(C#N)(NC(=O)CN1CCN(S(=O)(=O)c2ccc(Br)cc2Cl)CC1)C1CC1 (configuration not stated)	3	-1	-4
27	COc1cc(CC(CC(=O)c2ccc3c(c2)OCO3)C(=O)O)cc(OC)c1OC (configuration not stated)	-11	4	4
28	COc1cc(N)c(Cl)cc1C(=O)OCC(=O)N1CCc2ccccc21	-20	-4	-3
29	Cc1ccc(S(=O)(=O)N(C)C)cc1NC(=O)COC(=O)c1ccc2ccccc2n1	-11	-5	1
30	COc1ccc(-c2noc(CCC(=O)N3CCN(c4cccc(C)c4)CC3)n2)cc1	-13	1	-3

Molecules listed so far with an aryl methoxy group (8):
entry	SMILES	Yeast UUG start	MT1-MMP act inh	MT1-MMP act inh RFP
3	COc1ccccc1N1CC(C(=O)NCCC2=CCCCC2)CC1=O (configuration not stated)	-16	5	2
7	COc1cccc(CNC(=O)c2ccc(NC(=O)CC3SC(N4CCCC4)=NC3=O)cc2)c1 (configuration not stated)	-7	1	1
13	COc1ccc(-c2c(C#N)c(SCC(=O)Nc3ccccc3)nc3c2CCCC3)cc1	0	1	-12
14	COc1ccc(C(=O)/C=C/c2ccc(O)cc2)c2c1CC(O)C(C)(C)O2 (configuration not stated)	-21	-5	-11
17	COc1ccc(C)cc1NC(=O)COC(=O)CCC(=O)c1cccs1	-4	0	2
27	COc1cc(CC(CC(=O)c2ccc3c(c2)OCO3)C(=O)O)cc(OC)c1OC (configuration not stated)	-11	4	4
28	COc1cc(N)c(Cl)cc1C(=O)OCC(=O)N1CCc2ccccc21	-20	-4	-3
30	COc1ccc(-c2noc(CCC(=O)N3CCN(c4cccc(C)c4)CC3)n2)cc1	-13	1	-3

Rewritten with each value named: entries from further up
#14 COc1ccc(C(=O)/C=C/c2ccc(O)cc2)c2c1CC(O)C(C)(C)O2 (configuration not stated)
  Yeast UUG start: -21
  MT1-MMP act inh: -5
  MT1-MMP act inh RFP: -11

#15 CC(=O)OCCC(C)C
  Yeast UUG start: -13
  MT1-MMP act inh: 1
  MT1-MMP act inh RFP: 1

#16 O=C(COC(=O)c1ccc(S(=O)(=O)NCc2ccco2)cc1)NCc1ccc(F)cc1
  Yeast UUG start: -14
  MT1-MMP act inh: -3
  MT1-MMP act inh RFP: -1

#17 COc1ccc(C)cc1NC(=O)COC(=O)CCC(=O)c1cccs1
  Yeast UUG start: -4
  MT1-MMP act inh: 0
  MT1-MMP act inh RFP: 2

Continuation.
entry	SMILES	Yeast UUG start	MT1-MMP act inh	MT1-MMP act inh RFP
31	CC(C)=N/N=C1/NC(=O)C(c2ccc(Cl)cc2)S1 (configuration not stated)	-12	7	2
32	CN(Cc1ccccc1)C(=O)c1ccc(Nc2nc(CN)cs2)nc1	-16	-1	5
33	CCN(C(=O)c1c(C)noc1C)c1c(N)n(Cc2ccccc2)c(=O)[nH]c1=O	-8	-1	2
34	COc1cc(C)ccc1S(=O)(=O)NC(=O)C1(C)CCN1C(=O)c1ccc(C(F)(F)F)nc1C (configuration not stated)	-39	-2	1
35	Cc1cc(=O)c(C(=O)Nc2cccc(C(=O)NC3CC3)c2)nn1-c1ccccc1Cl	-4	1	-1
36	CC1CC(C)CN(C(=O)C(C)N(C)CC(=O)Nc2ccc(F)cc2)C1 (configuration not stated)	-2	-8	-3
37	O=S(=O)(Nc1cccc(S(=O)(=O)N2CCCC2)c1)c1ccc(Cl)s1	0	-1	0
38	CN(CC(=O)Nc1ccc(Cl)c(C(F)(F)F)c1)CC(=O)NC1CCCCC1	9	-6	-23
39	CCCCCCN1C[C@@H](n2cc(COC(=O)c3ccccc3)nn2)[C@H](O)C[C@@H]1c1ccc(C)cc1	-16	-1	-3
40	O=C(COC(=O)Cc1ccc(Br)cc1)Nc1ccc(N2CCOCC2)cc1	5	-1	3
41	CCN(C(=O)COC(=O)/C=C/c1nc2ccccc2s1)c1c(N)n(Cc2ccccc2)c(=O)[nH]c1=O	-14	-5	0
42	COc1ccccc1CC(=O)Nc1cc(S(=O)(=O)N2CCOCC2)ccc1N1CCOCC1	8	-1	2
43	COc1ccc(CC(=O)N(C)Cc2ccc(OC(F)F)cc2)cc1S(=O)(=O)N1CCOCC1	-25	-1	-1
44	C=CC(=O)Nc1cccc(N(C)c2ccnc(Nc3ccc(N4CCN(C)CC4)cc3)n2)c1	-14	-2	-19
45	CC#CCOCC1CN(C)C(=O)O1 (configuration not stated)	9	-1	3
46	CCc1ccc([C@@H]2C[C@H]3[C@@H](CN2S(=O)(=O)c2ccc(C)cc2)C(=O)C[C@@H](c2ccc(Cl)cc2)N3S(=O)(=O)c2ccccc2C)cc1	-18	-6	-7
47	O=C1CCN(CCCN2CCC(=O)NC2=S)C(=S)N1	-13	2	1
48	CCc1ccc(N2CC(C(=O)OCC(=O)N(CC)c3c(N)n(Cc4ccccc4)c(=O)[nH]c3=O)CC2=O)cc1 (configuration not stated)	1	-1	3
49	COc1ccc(S(=O)(=O)N2CCOCC2)cc1C(=O)NCC(c1ccccc1)c1ccccc1	-7	-5	-5
50	C[C@H]1CN([C@@H](C)CO)C(=O)c2cccc(NC(=O)c3cnccn3)c2O[C@@H]1CN(C)S(=O)(=O)c1ccc(F)cc1	-5	-4	3
51	CNC(=O)C1CC(=O)N(c2ccc(OCC(=O)Nc3ccccc3)cc2)C1 (configuration not stated)	-30	2	9
52	Cc1ccc(C)c(OCCC(=O)N2CCN(S(=O)(=O)c3ccc([N+](=O)[O-])cc3)CC2)c1	-4	-5	-10
53	C[C@H]1CN(c2ccc(Br)cc2)C(=O)[C@@H]1CC(=O)Nc1ccccc1	5	3	-6
54	CCOc1ccc(S(=O)(=O)N(CC)CC(=O)NC2CCS(=O)(=O)C2)cc1 (configuration not stated)	-23	-3	4
55	Cc1cccc(C(=O)NNC(=O)c2n[nH]c(=O)c3ccccc23)c1C	-17	1	3
56	COc1ccc(COC(=O)C2CC(=O)N(Cc3ccccc3)C2)cc1 (configuration not stated)	-5	1	0
57	CC1CCCN1c1ccnc2cc(Cl)ccc12 (configuration not stated)	-8	4	2
58	Cc1ccc(C)c(OCCC(=O)OCC(=O)NNC(=O)c2ccccc2)c1	-12	2	-1
59	O=C(Cn1cc(COc2ccc3ccc(=O)oc3c2)nn1)c1ccc(O)cc1	-3	3	1
60	COC(=O)[C@H](Cc1ccc(O)cc1)NC(=O)Cn1cnc(C(=O)Nc2ccc(C)c(C)c2)n1	-35	0	5
61	CC1CCC2(CC1)NC(=O)N(CC(=O)N1CCN(S(=O)(=O)c3ccc4c(c3)CCC4)CC1)C2=O (configuration not stated)	-24	5	-4
62	COCCCNC(=O)C[C@H]1C[C@H](C(=O)N2CCOCC2)[C@@]2(CCC3CCCC3)c3[nH]c4cc(CCC(=O)N(C)C)ccc4c3CCN2C1=O	-6	-1	1
63	O=C1CC2CCCC(C1)S2=O (configuration not stated)	-13	-4	1
64	COc1ccc(S(=O)(=O)N2CCCCCC2)cc1C(=O)NCc1ccccc1Cl	-10	0	-1
65	COc1ccc(C(CNC(=O)c2cc(S(=O)(=O)Nc3cccc(C)c3)ccc2C)N2CCCC2)cc1 (configuration not stated)	-2	2	0
66	O=C(Cc1ccccc1)NC1CCCCC1	0	1	6
67	CCOC(=O)c1c(NC(=O)COC(=O)c2ccc(NC(=O)CC#N)cc2)sc(C(=O)NC)c1C	3	0	6
68	COC(=O)[C@H](CC(C)C)NC(=O)CC[C@H]1O[C@@H](n2ccc(=O)[nH]c2=O)[C@H](O)[C@@H]1O	-14	2	3
69	CC1(C)CC(Cc2ccc(C(=O)c3ccccc3)cc2)N(C(=O)OC(C)(C)C)N1 (configuration not stated)	-20	0	-6
70	O=Cc1ccc(OCC(=O)N2CCc3ccccc32)c(Br)c1	-6	0	-4
71	COc1ccc(C(=O)N2CCCCC2c2cc(C(=O)NCc3ccccc3)no2)cc1 (configuration not stated)	3	3	-1
72	O=c1oc(-c2ccc(O)c(O)c2)cc2cccc(O)c12	-40	1	-10
73	OC(Cc1ccccc1)c1ncc(-c2ccc3ccccc3c2)[nH]1 (configuration not stated)	-6	1	-4
74	COc1ccc(C(=O)OCC(=O)NC2CC2)cc1OC	4	1	7
75	COc1ccc(CNC(=O)CN2C(=O)c3ccccc3S2(=O)=O)cc1	1	1	1
76	CC(C)N(C(=O)[C@H]1C[C@H](CC(=O)NCC23CC4CC(CC(C4)C2)C3)C(=O)N2CCc3c([nH]c4ccc(Cl)cc34)[C@]12C)C(C)C	-9	-12	-18
77	O=C(CCl)N1c2ccccc2Oc2ccc3ccccc3c21	-14	-44	36
78	O=C(c1ccc(-n2cncn2)c2ccoc12)N1CCOCC1	-3	1	0
79	CCN1C[C@@H]2[C@@H]3C(=O)N(Cc4ccccc4)C(=O)[C@@H]3[C@](C)(C(=O)OC)N2C1=NC	-1	1	6
80	CCc1ccccc1NC(=O)CN1CCN(C(=O)CNC(=O)Cc2cccc3ccccc23)CC1	6	-1	-22
81	CCOC(=O)C1=CN(CC)CCC1=O	8	6	12
82	Nc1ccc2c3c(ccc([N+](=O)[O-])c13)CC2	-15	7	4
